CBX7 AlphaScr = inhibitors of human CBX7 binding to H3K27me3 peptide | O95931 | normalised signal (fraction of DMSO) (test concentration not listed) | 1.1% of 66,000 active | AID 1224903 | AlphaScreen His6-CBX7 / biotin-H3K27me3 peptide binding; active compounds read low; in the data active = normalised signal below about 0.5;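 also: 100 nL library stock added to about 20 µL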
Target sequence (O95931 whole entry, looked up): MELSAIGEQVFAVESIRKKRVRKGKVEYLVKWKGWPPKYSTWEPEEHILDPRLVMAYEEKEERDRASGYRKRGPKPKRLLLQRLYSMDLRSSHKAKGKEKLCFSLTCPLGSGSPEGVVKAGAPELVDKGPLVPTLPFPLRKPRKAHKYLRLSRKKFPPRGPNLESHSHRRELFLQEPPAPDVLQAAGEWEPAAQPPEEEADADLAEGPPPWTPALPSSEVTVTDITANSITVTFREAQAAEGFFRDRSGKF
CBX7 AlphaScr z-score = recorded beside CBX7 AlphaScr, whose call it bears; z-score; measured here: z-score of CBX7 signal; some inactives read as strong as hits; reference of the scale not given here;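 same signal on another scale; lower means less binding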
* = called active by the depositor; & = joins results of further samples. Some of the compounds tested; rates above refer to the full screens.

SMILES	CBX7 AlphaScr	CBX7 AlphaScr z-score
O=S(=O)(Nc1nc2ccccc2nc1NCc1ccc(Cl)cc1)c1ccccc1	0.955	-1.29
CCCCOc1ccc(C(=O)Nc2sc3c(c2C(=O)OCC)CCCCC3)cc1	1.29	2.18
COc1ccc(-n2cc(-c3ccccc3)nc2SCC(=O)NC2CCCCC2)cc1	0.854	-4.79
CCCN(CCC)C(=O)c1ccc2c(c1)N(Cc1ccc(F)cc1)C(=O)c1ccccc1S2=O (stereo not given)	0.864	-1.93
Cc1nc2ccc(S(=O)(=O)NC(CC(C)C)C(=O)Nc3ccc(F)cc3F)cc2s1 (stereo not given)	1.01	0.298
CNc1nc2nonc2nc1Nc1cccc(Cl)c1	0.935	-0.843
COc1ccc(NC(=O)Cn2cnc3c(nnn3Cc3ccc(F)cc3)c2=O)cc1OC	0.815	-3.04
O=C(Nc1nc(-c2ccc(F)cc2)cs1)c1cccc(C(F)(F)F)c1	1.17	2.88
O=C(Nc1ccccc1C(=O)O)c1cccc(N2C(=O)c3ccccc3C2=O)c1	0.996	-0.106
O=C(NCCCc1ccccc1)c1ccc2c(c1)NC(=O)C1CCCN21 (stereo not given)	0.944	-0.247
CC1CCCCC1NC(=O)Cn1ncc2c1-c1ccccc1OC2 (stereo not given)	1.13	0.784
Cc1c(C(=O)O)oc2ccc(S(=O)(=O)N3CCC4(CC3)OCCO4)cc12	1.07	0.901
O=C(CCCCn1c(=O)[nH]c2ccccc2c1=O)NC1CCN(Cc2ccccc2)CC1	1.17	0.475
COc1ccc(C2CC(=O)N(CC(=O)Nc3ccc4c(c3)OCCO4)c3ccccc3S2)cc1 (stereo not given)	0.982	-0.307
COc1ccc(CCNC(=O)Cn2nnc(-c3ccc(S(C)(=O)=O)cc3)n2)cc1OC	1.22	2.07
O=C1CC(c2ccc(Br)cc2)C2=C(CCCC2=O)N1 (stereo not given)	1.06	0.817
O=C(CN1CCN(Cc2ccc(Cl)cc2)C1=O)NCc1ccccn1	0.777	-3.21
CC(=O)N1c2ccc(S(=O)(=O)Nc3cc(C)cc(C)c3)cc2CC1C (stereo not given)	0.952	-0.194
O=C(NCCCN1CCCCC1)C1CC(=O)N(C2CCCCC2)C1 (stereo not given)	0.993	-0.0144
COc1ccc(CNc2ccc3c(c2)ncn3-c2ccc(C)cc2)cc1OC	0.725	-1.29
CC1CCCCN1CCNC(=O)Cn1nc(Cc2ccncc2)c2ccccc2c1=O (stereo not given)	0.99	-0.339
O=C(Nc1cccc(C(F)(F)F)c1)C1CC(c2ccc(F)cc2)=NO1 (stereo not given)	1.09	4.04
CCOc1ccc(NC(=O)N(Cc2ccc(C)cc2)Cc2ccccn2)cc1	0.9	-0.0992
O=C(NC1CCCC1)C1=CCN(S(=O)(=O)c2ccc(F)cc2)CC1	0.978	-1.07
CC1CC(C)CN(S(=O)(=O)c2ccc3c(c2)N(CC(=O)N2CCOCC2)C(=O)CO3)C1 (stereo not given)	1	-0.00046
COc1ccc(N2CCN(C(c3cccs3)C(C)NS(=O)(=O)c3ccc(C)cc3)CC2)cc1 (stereo not given)	0.517	-6.21
COc1ccccc1-c1cc2nc(C)c(CCC(=O)Nc3ccccc3)c(C)n2n1	1.01	0.194
Cc1ccc(OCc2nc3ccccc3n2Cc2ccccc2C)cc1	0.845	-5.51
CC(C)OCCCNC(=O)CN1CCN(Cc2ccccc2Cl)C1=O	1.05	0.634
CC1CCCCN1c1nnc(NC(=O)Nc2ccccc2C(F)(F)F)s1 (stereo not given)	0.696	-1.2
CCOc1ccc(-c2nc(-c3ccccc3)no2)cc1OCC	1.79	3.43
CCOC(=O)c1c(C)nsc1Nc1cc(Cl)ccc1Cl	1.17	1.82
COc1ccc(-c2cc(C(=O)NCCCN3CCOCC3)no2)cc1OC	1.02	0.25
COc1ccc(N2CCN(c3oc(COc4ccccc4C)nc3C#N)CC2)cc1	0.525	-2.97
Cc1ccc(C)c(CN2C(=O)c3ccccc3S(=O)c3ccc(C(=O)NCc4cccnc4)cc32)c1 (stereo not given)	0.863	-2.2
O=C(CN1CCN(Cc2ccc(Cl)cc2)C1=O)NCCCN1CCN(c2ccc(F)cc2)CC1	1.07	1.16
Cc1ccc(CNC(=O)c2ccc3c(c2)N(Cc2ccc(Cl)cc2)CCS3)cc1	0.905	-1.21
CC(=O)Nc1ccc(S(=O)(=O)N2CCN(c3cccc(C)c3)C(C)C2)cc1 (stereo not given)	0.967	-0.819
COc1ccc(CNC(=O)CCNS(=O)(=O)c2ccc3c(c2)CCN3C(C)=O)cc1	1.05	0.868
COc1ccccc1CN1C(=O)CCC1(C)C(=O)NC1CCCCCCC1 (stereo not given)	0.995	-0.135
O=C(Nc1ccc(Cc2ccncc2)cc1)c1ccc2ccccc2n1	0.98	-0.187
CCOC(=O)c1cnn(Cc2ccc(Cl)cc2)c1C	1.02	0.216
CCN1CCN(C(=O)CS(=O)(=O)Cc2nc(-c3ccccc3C)oc2C)CC1	1.01	0.361
CCOC(=O)c1cnc2ccc(Cl)cc2c1Nc1cccc(OC)c1	1.14	3.76
COc1ccc(NC(=O)C(c2ccc(OC)cc2)N2CCOCC2)cc1 (stereo not given)	1.05	0.335

Another view of part of the listing above:
compound,CBX7 AlphaScr,CBX7 AlphaScr z-score
CC1CCCCN1CCNC(=O)Cn1nc(Cc2ccncc2)c2ccccc2c1=O (stereo not given),0.99,-0.339
O=C(Nc1cccc(C(F)(F)F)c1)C1CC(c2ccc(F)cc2)=NO1 (stereo not given),1.09,4.04

Continued.
SMILES	CBX7 AlphaScr	CBX7 AlphaScr z-score
COc1cc2c(cc1OC)C(C(=O)NC1CCCCCC1)C1c3ccccc3CCN1C2=O (stereo not given)	1.02	0.469
CCOc1ccc(NC(=O)NCC2CCN(c3ccc(OC)cc3)C2)cc1 (stereo not given)	0.967	-1.32
CCC(C(=O)Nc1ccc(S(=O)(=O)Nc2nccc(C)n2)cc1)c1ccccc1 (stereo not given)	1.21	3.25
COc1ccc(-c2cc(CCCC(=O)NCc3ccc4c(c3)OCO4)no2)cc1	1.02	1.08
O=C(Nc1ccc(S(=O)(=O)Nc2ncccn2)cc1)c1cccc(Cl)c1	1.05	0.0468
Cc1ccn2c(Nc3ccc4c(c3)OCO4)c(-c3cccnc3)nc2c1	0.816	-6.92
COc1cc(-c2nc3sc4c(c3c(=O)[nH]2)CCCC4)cc(Cl)c1OCc1ccccc1	1.03	0.709
COc1ccccc1-c1cc2nc(C)c(CCC(=O)NCCc3ccccc3)c(C)n2n1	0.998	-0.0931
Cc1nc(N2CCCCC2C)c2c(C)c(C(=O)Nc3cccc(C(F)(F)F)c3)sc2n1 (stereo not given)	1.1	3.17
CC(O)c1cn(-c2nonc2N)nn1 (stereo not given)	1.01	0.17
CC(=O)Nc1nonc1-c1nc2ccccc2n1Cc1ccccc1F	0.952&1	-0.754&0.0697
O=C(Nc1ccc2c(c1)OCO2)C(c1ccc(Cl)cc1)N1CCC2(CC1)OCCO2 (stereo not given)	1.01	0.295
Cc1nnc(NC(=O)CCCOc2ccccc2C)s1	0.978	-0.624
Cc1cc(Nc2ccc(C)c(F)c2)n2nnnc2n1	1.08	1.78
CCCN1Cc2cccc(C(=O)NCCCOC(C)C)c2C1=O	0.989	-0.0112

Retrieved by structure from the entries so far:
SMILES	CBX7 AlphaScr	CBX7 AlphaScr z-score
Cc1nnc(NC(=O)CCCOc2ccccc2C)s1	0.978	-0.624
CC(=O)Nc1nonc1-c1nc2ccccc2n1Cc1ccccc1F	0.952&1	-0.754&0.0697
Cc1cc(Nc2ccc(C)c(F)c2)n2nnnc2n1	1.08	1.78
O=C(Nc1ccc2c(c1)OCO2)C(c1ccc(Cl)cc1)N1CCC2(CC1)OCCO2 (stereo not given)	1.01	0.295
COc1ccccc1-c1cc2nc(C)c(CCC(=O)NCCc3ccccc3)c(C)n2n1	0.998	-0.0931
Cc1nc(N2CCCCC2C)c2c(C)c(C(=O)Nc3cccc(C(F)(F)F)c3)sc2n1 (stereo not given)	1.1	3.17
COc1cc(-c2nc3sc4c(c3c(=O)[nH]2)CCCC4)cc(Cl)c1OCc1ccccc1	1.03	0.709

Continuation.
SMILES	CBX7 AlphaScr	CBX7 AlphaScr z-score
COc1ccc(CNC(=O)CN2C(=O)COc3ccccc32)cc1	1.05	1.9
O=C(CNC(=O)Cn1cnc2sc3c(c2c1=O)CCCC3)NCc1ccc(F)cc1	1.04	1.33
COc1cccc(-n2ccnc2SCC(=O)Nc2cc(C)cc(C)c2)c1	0.516	-0.643
O=C(Nc1ccc(Br)cc1)c1nc[nH]c1C(=O)O	0*	-18.2*
O=C(NCc1nnc(SCC(=O)N2CCN(c3ccccc3)CC2)o1)c1cccs1	1.02	0.893
O=C(Cn1ccc2ccccc2c1=O)NCCC(=O)Nc1ccc(F)c(Cl)c1	1.01	0.19
CC(=O)Nc1ccc(Nc2nc(-c3c(C)nc4ccccn34)cs2)cc1	0.953	-0.056
CC1CC(C)CN(C(=O)CN2C(=O)COc3ccc(S(=O)(=O)N4CCCCCC4)cc32)C1 (stereo not given)	1.1	0.244
O=C1CCc2cc(S(=O)(=O)NCCC(=O)NC3CCCCC3)ccc2N1	1.03	1.03
CCOc1ccc2nc(N3CCC(C(=O)NCc4ccccc4)CC3)sc2c1	1.03	0.122
CN(C)C(=O)N1CCCC(C(=O)NCc2ccccc2)C1 (stereo not given)	0.974	-1.29
COc1ccc2c(c1)CCc1c(C(=O)N3CCN(c4ccccc4)CC3)noc1-2	0.979	-0.21
CC1=C(c2ccc(C)cc2)S(=O)(=O)NC1=NCC(=O)O	1	0.198
CCCCCCCNC(=O)c1ccc2c(c1)nc(C)n2-c1ccc(OC)cc1	0.754	-4.27
COc1ccccc1/C=C/c1nc2ccccc2n1CCOc1ccccc1	1.54	28
O=C1CC(c2nc3ccccc3n2Cc2ccccc2F)CN1Cc1ccccc1 (stereo not given)	1	0.0169
CCN1CCN(c2cc(C)c3cc(NC(=O)c4cncc(Br)c4)ccc3n2)CC1	0.825	-1.19
CCN(CCNC(=O)C(C)N1C(=O)COc2ccc(C)cc21)c1ccccc1 (stereo not given)	1.01	0.165
Cc1ccc(NC(=O)Cn2c(SCc3cc(C)ccc3C)nc3ccncc32)c(C)c1	0.969	-1.45
COc1ccc(C2CC(=O)N(CC(=O)Nc3ccc(OC)c(OC)c3)c3ccccc3S2)cc1 (stereo not given)	0.687	-5.25
N#Cc1nc(COc2ccccc2F)oc1N1CCC(C(N)=O)CC1	1.05	2.38
Cc1nc2c(-c3ccc(F)cc3)c(C)nn2c(C)c1CCC(=O)Nc1cccnc1	1.05	0.322
COc1ccc(Nc2nc(Cc3ccccc3)nc3sc4c(c23)CCCC4)cc1OC	0.946	-1.89
COc1ccc(-c2cc(C(F)(F)F)n3nc(C(=O)NCCCn4ccnc4)cc3n2)cc1	0.96	-1.32
C=CCN1C(=O)c2ccccc2Sc2ccc(C(=O)NC3CCCCC3C)cc21 (stereo not given)	1.04	0.943
Cc1nc2cc(-c3ccccc3)nn2c(C)c1CCC(=O)NCCC1=CCCCC1	1.05	1.49
CCn1c(C(=O)NCc2cccs2)cc2sc(Cl)cc21	1	0.0521
Cc1c(Cl)cccc1NC(=O)c1oc2ccc(S(=O)(=O)N3CCCCCC3)cc2c1C	1.02	0.671
CCCS(=O)(=O)NCCc1cc2cc(C)c(C)cc2[nH]c1=O	1.14	2.7
Cc1cccc(NC(=O)c2cnn(-c3ccccc3)c2NC(=O)c2ccccc2)c1	1.05	1.92
Cc1ccc(NC(=O)c2ccc(CNc3c(NC4CCCC4)c(=O)c3=O)cc2)c(C)c1	0.892	-0.248
O=C(Nc1ccc(F)cc1)c1nc2c(nnn2Cc2ccc3c(c2)OCCO3)c(=O)[nH]1	0.979	-0.488
O=C(Nc1ccc(Oc2ccccc2)cc1)c1cccc(S(=O)(=O)N2CCOCC2)c1	0.913	-0.737
O=C(NCC1CCCO1)c1ccc2c(c1)ncn2-c1cccc(Cl)c1 (stereo not given)	1.03	0.599
Cc1ccc(-c2nc(S(=O)(=O)c3ccc(F)cc3)c(SCC(=O)c3ccccc3)o2)cc1	0.884	-0.965
Cc1ccc(-n2nc(C)c3c(C)c(CCC(=O)NC4CCCCC4)c(C)nc32)cc1	1.18	1.38
CCOc1ccc(-c2nc(CSCC(=O)N3CCC(N4CCCCC4)CC3)c(C)o2)cc1	0.92	-1.13
Cc1sc2ncnc(SCC(=O)c3ccccc3F)c2c1C	1.01	0.0175
COc1ccc(CC(=O)Nc2c(-c3ccc(OC)c(OC)c3)cnn2-c2ccccc2)cc1OC	1.06	1.48
COc1cccc(NC(=O)CCc2c(C)nc3c(-c4ccccc4)c(C)nn3c2C)c1	1.07	1.65
Cc1[nH]c2c(Cl)cccc2c(=O)c1CN1CCCC1	1.04	0.765
Fc1ccccc1COc1ccc(-c2nnc3ccc(C(F)(F)F)cn23)cc1	1.21&0.737	2.4&-2.51
NC(=O)C1CCN(C(=O)c2ccc(NC3=NC4CS(=O)(=O)CC4S3)cc2)CC1 (stereo not given)	1.15	2.77
Cc1cccc2c1-c1sc(C(=O)NCC3CCCO3)cc1CO2 (stereo not given)	1.17	5.78
Clc1ccc(Nc2ccc(NCc3ccccc3)nn2)cc1	0.865	-1.46
CCN1C(=O)C(O)(CC(=O)c2ccc(-c3ccccc3)cc2)c2ccccc21 (stereo not given)	0.733	-7.14
CC(=O)Nc1ccc(NC(=O)C2CCCN(C(=O)c3cnn(-c4ccccc4)c3-n3cccc3)C2)cc1 (stereo not given)	0.981	-0.944
Cc1nnc2ccc(N3CCN(C(=O)c4ccc(Cl)cc4)CC3)nn12	0.959	-0.745
CC(C)(C)c1nnc(Nc2cccc(C(F)(F)F)c2)[nH]c1=O	1.05	2.07

Screening results from PubChem.
